# HPGD block: blocks human HPGD enzyme activity; P15428; purified HPGD, NADH fluorescence kinetic, PGE2 substrate; Potency, µM, for the others: top-dose activity change, negative = inhibition, most hits filed as inhibitors; 4.3% of 150,000 active; AID 894; active = well fitted inhibition curve with a large enough effect (not every such curve was filed as active); inconclusive = small, poorly fitted or top-dose-only effect, or another doubt; inactive = no such curve, though single readings can be large or run the other way;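 also: top concentration of the series not given in the record; plate controls included wells without enzyme; inactives centre near -10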
# Target sequence (P15428 whole entry, looked up): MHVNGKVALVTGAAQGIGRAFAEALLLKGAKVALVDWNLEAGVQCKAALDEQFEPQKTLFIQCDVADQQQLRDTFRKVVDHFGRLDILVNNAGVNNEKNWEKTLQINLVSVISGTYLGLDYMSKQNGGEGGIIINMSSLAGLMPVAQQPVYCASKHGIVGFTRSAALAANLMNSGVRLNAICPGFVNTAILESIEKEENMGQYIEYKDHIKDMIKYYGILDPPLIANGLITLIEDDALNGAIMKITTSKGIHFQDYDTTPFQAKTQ
#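 20 nM HPGD preincubated 15 min at room temperature with compound in 50 mM Tris-HCl pH 8, 0.01% Tween 20. Started with 1 mM NAD+ and 30 uM prostaglandin E2; NADH fluorescence (360/450 nm) read 5 times over 30-s intervals, last minus first.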
# Starred values were filed as active, the others as inactive; ? = inconclusive; & = joins results of further samples; ! = a repeat was not active. % is scaled to controls: 0 for no effect and ±100 for the full control effect; potency is read from the fitted curve at half-maximal effect. Some of the compounds tested; rates above refer to the full screens.
molecule	HPGD block
O[N+]1=CC=CCC1=S.On1ccccc1=S.[Zn]	?
O=C(C1CCC(=O)N1C1CCCCC1)N1CCC2(CC1)OCCO2 (stereo not given)	-11.6%
CNC(C)[C@@H](O)c1ccccc1 (stereo not given in full)	-7.3%
Oc1ccc(C2NCc3ccccc3-n3cccc32)cc1Cl (stereo not given)	-7.0%
CCCCCn1c(NC(=O)c2ccco2)c(C(=O)OCC)c2nc3ccccc3nc21	?
C[C@@]12CCC3C(CCC4=CC(=O)CC[C@]43C)C1CCC2O (stereo not given in full)	-2.0%
N#CC(C#N)=NNc1ccc(OC(F)(F)F)cc1	-27.4%
Cc1ccc(N2CCN(CCc3ccccc3)CC2)cc1	4.3%
COc1ccc2c(c1)C13CCCCC1C(C2)N(C)CC3 (stereo not given)	-21.4%
Cc1cc(O)c(CN2CCN(c3ccccc3)CC2)cc1C	-6.9%
O=c1c2ccccc2nc(-c2ccco2)n1-c1ccccn1	-1.8%
CC(C)(C)n1c(O)c(C=Nc2ccc3c(c2)CCC3)c(=O)[nH]c1=O	?
COc1ccc(C2SCC(=O)Nc3c2c(=O)[nH]n3C2CCCCCC2)cc1 (stereo not given)	?
CCOC(=O)C1=C(C)N(C)C2(C)CC1c1ccccc1O2 (stereo not given)	-15.3%
O=C1NC(=O)N(CCC2=CCCCC2)C(=O)/C1=C/c1ccc(O)cc1	11.2µM*
Cc1sc2nc(COC(=O)Cc3ccccc3)[nH]c(=O)c2c1C	-2.7%
Cc1cccc(OP(=O)(Oc2ccccc2)OC(c2ccccc2)C(F)(F)F)c1 (stereo not given)	-25.4%
CCOP(=S)(OCC)Oc1cc(C)nc(C(C)C)n1	-1.5%
N#Cc1c(/N=C/c2ccc(O)cc2O)sc2c1C1CCN2CC1	-17.8%
CCCNS(=O)(=O)c1ccc(OCC(=O)N2CCN(C)CC2)cc1	-4.2%
Cc1ccc(C)c(NC(=O)CSc2nnc([C@@H](N)Cc3c[nH]c4ccccc34)o2)c1	-21.6%
O=P(Nc1cccnc1)(Oc1ccccc1)Oc1ccccc1	-11.2%
COC1C(O)C(C)O[C@@H](OC2CC[C@@]3(C)C4CC[C@]5(C)C(C6=CC(=O)OC6)CC[C@@]5(O)C4CC[C@@H]3C2)C1O (stereo not given in full)	-0.5%
CN[C@@H]1C[C@@H](c2ccc(Cl)c(Cl)c2)c2ccccc21	-14.0%
CC(C)c1ccc(N2C(=O)NC(=O)/C(=C/C=C/c3ccco3)C2=O)cc1	3.16µM*
O=C(C1CCN(c2nc3ccc(Br)cc3s2)CC1)N1CCC2(CC1)OCCO2	-5.9%
CC1=NN=C(c2ccc(N)cc2)c2cc3c(cc2C1)OCO3	2.0%&-10.2%
Cl.Cl.Cl.Cl.Cl.Cl.N.N.N.N.NNNNN.NNNNN.O.O.[Ru].[Ru].[Ru]	-12.0%
Cc1c(NC(=O)C(C)OC(=O)Cc2ccccc2)c(=O)n(-c2ccccc2)n1C (stereo not given)	-7.6%
COc1ccccc1N(CC(=O)NC1CCCCC1)C(=O)c1cnn(C(C)C)c1	-18.5%
CC(=O)OC1N=C(c2ccccc2)c2ccccc2NC1=O (stereo not given)	-1.6%
CN(C)CCN(C)CCc1ccc(Cl)c(Cl)c1	-5.7%
O=c1c(O)c(-c2ccc(O)c(O)c2)oc2cc(O)cc(O)c12	20µM*!
Cc1cccc(NP(C)(=O)c2nc3c(s2)CCCC3)c1 (stereo not given)	?
CCOc1ccccc1-n1c(O)c(C=NCc2ccc3c(c2)OCO3)c(=O)[nH]c1=O	-7.0%
CN(C)C(Cc1ccc(C#N)cc1)C(=O)c1ccccc1 (stereo not given)	-1.8%
CN1CCN(C(=O)COc2ccc3ccccc3c2Br)CC1	-9.6%
Cc1c(C(=O)N2CCC3(CC2)OCCO3)sc2ncnc(N3CCN(c4ccccn4)CC3)c12	-7.7%
Clc1ccccc1CN1CCN(c2ccccc2)CC1	-11.8%
Cn1ncnc2c(=O)n(C)c(=O)nc1-2	-23.0%
O=C1CCCC2C3CCCN4CCCC(CN12)C34 (stereo not given)	-7.9%
Oc1c(Cl)cccc1Cl	-14.3%
O=c1c2ccccc2nc(/C=C/c2ccc3c(c2)OCO3)n1-c1ccccc1	-23.4%
CCCC(=O)Nc1ccc(N2CCN(CC)CC2)c(Cl)c1	-5.1%
c1cnc(N2CC[C@@]3(CCCNC3)C2)nc1	-24.1%
COc1nc(NC(C)C)nc(NC(C)C)n1	-5.8%&-3.3%
C/C(=N\N1CCCCCC1)c1c(O)n(-c2ccc(C)cc2)c(=O)[nH]c1=O	-3.4%
c1cc2c(cc1CCNC1C3CC4CC(C3)CC1C4)OCO2 (stereo not given)	0.4%
O=[N+]([O-])/C=C/c1c(OCc2ccccc2)ccc2ccccc12	15.8µM*
C/C=C(/C)C(=O)O[C@H]1C(C)=C2C([C@@H]1OC(=O)CCCCCCC)[C@@](C)(OC(C)=O)C[C@@H](OC(=O)CCC)[C@@]1(O)[C@H]2OC(=O)[C@@]1(C)O (stereo not given in full)	?

# Carrying on:
canonical_smiles | HPGD block
CN1CCC(c2c[nH]c3ccc(O)cc23)CC1 | -8.0%&-10.5%
CC(=NCCCN1CCOCC1)c1c(O)[nH]c(=O)[nH]c1=O | -3.0%
CC(C)OC12Oc3ccccc3C=C1N1CCC2CC1 (stereo not given) | -7.5%
OCCBr | -3.0%
C[N+]1=C(/C=C/Nc2ccccc2)C(C)(C)c2ccccc21 | -12.3%
COc1ccc(OC)c(CN2CCN(C(=O)COc3cccc(C)c3)CC2)c1 | 0.7%
COc1cccc(-c2nc(CS(=O)CC(=O)N3CCC4(CC3)OCCO4)c(C)o2)c1 (stereo not given) | -12.8%
CCCCCCCCc1[se]c2ccccc2c1[Se]c1ccccc1 | -16.0%
CC[C@@]1(O)C(=O)OCc2c1cc1n(c2=O)-c2cc3ccccc3nc2C1 | ?
CN[C@H](Cc1ccccc1)c1cccc(OC)c1O | -5.8%
CC(C)n1c(=O)c(C=Nc2ccc(S(N)(=O)=O)cc2)c(O)n(Cc2ccco2)c1=O | -13.0%
CCCCC/C=C\C/C=C\C/C=C\C/C=C\CCCC(=O)NCC(=O)O | 28.2µM*!
CC(C)n1cnc2c(C(=O)N[C@H]3CN4CCC3CC4)cc(Cl)cc21 | -7.4%
O=c1ccc2cc(OC3OC(CO)C(O)C(O)C3O)c(O)cc2o1 (stereo not given) | ?
COC(=O)[C@@]1(Cc2ccccc2)[C@H]2c3cc(C(=O)N(C)C)n(C)c3C[C@H]2CN1C(=O)c1ccccc1 | -3.0%
CC1=NN(c2ccccc2)C(=O)C1/C=C1\C(=O)NC(=O)N(c2cc(C)cc(C)c2)C1=O (stereo not given) | -27.6%
O=c1ccc(=O)[nH][nH]1 | -2.3%
CC/C=C\C/C=C\C/C=C\C/C=C\C/C=C\CCCC(=O)NC(C)C(=O)O (stereo not given) | -5.8%
Cc1ccc(-c2nn(C)c(=O)c3ccccc23)cc1CNC(=O)/C=C/c1ccccc1 | ?
Cc1ccc(N)c(C(=O)c2ccccc2)c1 | -13.4%

# Quoted from the listing.
# C[N+]1=C(/C=C/Nc2ccccc2)C(C)(C)c2ccccc21 in HPGD block shows -12.3%
# CC1=NN(c2ccccc2)C(=O)C1/C=C1\C(=O)NC(=O)N(c2cc(C)cc(C)c2)C1=O (stereo not given) in HPGD block shows -27.6%
# O=c1ccc(=O)[nH][nH]1 in HPGD block shows -2.3%

# (list continues)
canonical_smiles | HPGD block
CCc1cccc2c(C#N)cn(CC(=O)N3CCOCC3)c12 | 0.2%
N#Cc1ccc(CN2CC[C@@]3(CCCNC3)C2)cc1 | -10.7%
O=C(O)c1ccc(NC(=O)N2C[C@H]3C[C@@H](C2)c2cccc(=O)n2C3)cc1 | -4.0%
Nc1ccccc1C(=O)OCC(=O)Nc1ccc(Br)cc1F | ?
Cc1ccccc1C(O)(Cc1ccccc1)C1CN2CCC1CC2 (stereo not given) | 0.9%
Clc1ccc(CNC2CN3CCC2CC3)cc1 (stereo not given) | 0.6%
CC(=O)N(C1=NCCCS1)c1ccc(F)cc1 | -10.3%
CC(C)c1oc(=O)cc2c1[C@@H](O)[C@H]1OC(=O)[C@@]3(C)CC[C@@H](O)[C@@]2(C)C13 (stereo not given in full) | -11.6%
O=C(Nc1ccc2c(c1)OCO2)c1cn(Cc2ccc(F)cc2)nn1 | -9.6%
CCOC(=O)c1c(N)n(CCN2CCOCC2)c2nc3ccccc3nc12 | ?
NC[C@@H](Cc1ccccc1)P(=O)(O)O | -7.7%
Cc1c(C(=O)c2cccc3ccccc23)c2cccc3c2n1[C@@H](CN1CCOCC1)CO3 | -1.4%
Cc1ccc(N)c(C)c1 | -5.4%
Nc1c(C(=O)NCCN2CCOCC2)c2nc3ccccc3nc2n1Cc1ccco1 | ?
CC(=O)Nc1ccc(C(=O)OCC(=O)Nc2ccc(Cl)cc2C(=O)c2ccccc2)cc1 | 0.2%
CCCN(C/C=C\I)[C@@H]1CCc2ccc(O)cc2C1 | -7.5%
COC1=CC(=O)OC(CCc2ccccc2)C1 (stereo not given) | -6.3%
Cc1ccc(C2SCC(=O)Nc3c2c(=O)[nH]n3C2CCOC(C)(C)C2)cc1 (stereo not given) | -3.2%
N[C@@]1(C(=O)O)CC[C@H](C(=O)O)C1 | 2.8%&-5.3%&4.2%
Cc1cc[c]([Sb]2[O]C([C@H](O)[C@H](O)C(=O)O)[C@@H](CO)[O]2)cc1 (stereo not given in full) | 1.0%

# Compounds from the list above containing fluorine, in the order listed:
canonical_smiles | HPGD block
N#CC(C#N)=NNc1ccc(OC(F)(F)F)cc1 | -27.4%
Cc1cccc(OP(=O)(Oc2ccccc2)OC(c2ccccc2)C(F)(F)F)c1 (stereo not given) | -25.4%
Nc1ccccc1C(=O)OCC(=O)Nc1ccc(Br)cc1F | ?
CC(=O)N(C1=NCCCS1)c1ccc(F)cc1 | -10.3%
O=C(Nc1ccc2c(c1)OCO2)c1cn(Cc2ccc(F)cc2)nn1 | -9.6%

# Five compounds drawn at random from those above, as already listed:
canonical_smiles | HPGD block
O=C(Nc1ccc2c(c1)OCO2)c1cn(Cc2ccc(F)cc2)nn1 | -9.6%
NC[C@@H](Cc1ccccc1)P(=O)(O)O | -7.7%
CC(=O)N(C1=NCCCS1)c1ccc(F)cc1 | -10.3%
Cc1c(C(=O)c2cccc3ccccc23)c2cccc3c2n1[C@@H](CN1CCOCC1)CO3 | -1.4%
Cc1ccc(N)c(C)c1 | -5.4%

# (listing goes on)
canonical_smiles | HPGD block
COc1ccc(/C=C2/Sc3ccc(C(=O)N4CCc5ccccc5C4)cc3NC2=O)cc1 | 15.8µM*
c1csc(CN2CC3(CCNCC3)C2)n1 | -15.7%
CCC(=NCc1cccnc1)c1c(O)n(C2CCCCC2)c(=O)[nH]c1=O | -1.4%
Cc1ccc(N2C(=O)NC(=O)C3(Cc4ccccc4N4CCCC43)C2=O)cc1 (stereo not given) | -15.2%
CCn1c(O)c(C=Nc2ccc(N3CCOCC3)c(Br)c2)c(=O)n(CC)c1=S | -20.0%
CCOCCOC(C)=O | -10.6%
CCOc1cc(CNC(C)C(O)c2ccccc2)cc(Cl)c1OCC (stereo not given) | -16.5%
O=Cc1ccc2c(c1)OCO2 | -8.1%
COC1=CC(=O)O[C@@H](/C=C\c2ccccc2)C1 | 0.7%
COc1ccc(C=O)cc1OC | -14.4%
N#Cc1c(Cl)cccc1Cl | -12.1%
C[C@H]1CC[C@@]2(NC1)O[C@@H]1C[C@@H]3[C@@H]4CC=C5C[C@@H](O)CC[C@]5(C)[C@@H]4CC[C@]3(C)[C@H]1[C@@H]2C | -6.2%
O=[N+]([O-])c1ccc(-c2ccc(C=Nc3cccc4ccccc34)o2)cc1 | ?
Cc1nc2cc(-c3ccccc3)nn2c(C)c1CCC(=O)N1CCC2(CC1)OCCO2 | -24.8%
CC1(C)CC(=O)C=C(NCCN2CCN(C(=O)Cc3ccc(Cl)cc3)CC2)C1 | 1.9%
CCN(CC)c1ccc(/C=C2/C(=O)NC(=O)N(CC3CCCO3)C2=O)cc1 (stereo not given) | 35.5µM*
CCCCn1c(=O)c(C=Nc2cc([N+](=O)[O-])ccc2OC)c(O)n(CCCCl)c1=O | -18.0%
NC(=S)Nc1ccccc1 | -2.0%&1.1%
O=C(O)c1nn(Cc2ccc(Cl)cc2Cl)c2ccccc12 | -13.9%&-22.6%
CCN(CC)CCCN=Cc1c(O)n(-c2cccc(C)c2C)c(=O)[nH]c1=O | -1.6%
COc1ccc(N)cc1 | -3.7%&-6.9%
C[C@@H]1CC[C@H]2[C@@H](C)C(=O)O[C@@H]3OC4(C)CC[C@@H]1C32OO4 (stereo not given in full) | -3.1%
C=C[C@H]1CN2CC[C@@H]1C[C@H]2[C@@H](O)c1ccnc2ccccc12 | 4.5%&0.6%
Cn1c(O)c(C=NCCCN2CCCC2=O)c(=O)n(C)c1=O | -6.8%
C[C@@]1([C@@H](NP(=O)(c2ccccc2)c2ccccc2)c2ccccc2)C[C@H]1CCO | -2.3%&-10.9%
CC(C)NC(=O)N1CCC2(CC1)CCN(C(=O)Oc1ccccc1)CC2 | -3.4%
N#CC(Cl)(Cl)Cl | -2.7%
CC(C)=CCC12CN3CCN(CC(C3)C1=O)C2 | -6.2%
CCC(=NC1CC1)c1c(O)n(C2CCCCC2)c(=O)[nH]c1=O | -3.5%
C=Cn1ccnc1P(=S)(c1ccc(N(C)C)cc1)c1nccn1C=C | -5.5%
COc1ccc(/C=C2/C(=O)N(Cc3ccco3)C(=O)N(C(C)C)C2=O)cc1 | 22.4µM*
c1ccc(C2N3CCCN23)cc1 (stereo not given) | -5.0%
O=C(COC(=O)Cc1ccccc1)NC12CC3CC(CC(C3)C1)C2 | -5.6%
